Source: PubChem BioAssay (Broad Institute)
Tgondii IFNg – T. gondii growth inhibition under IFN-gamma; Toxoplasma gondii growth in IFN-gamma-treated host cells; stronger effect = lower value; reference of the scale not given here; activity change, negative = inhibition, %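 (about 20 µM by stock and volumes)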; 3.8% of 69,000 active;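 active means below -70%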;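 further: host cells are HeLa cells infected with Toxoplasma gondii; parasite growth read as luciferase light; one replicate is shown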
* marks the source's active call; other numbers are inactive results; i = inactive; & = joins results of further samples. A portion of the library; rates above refer to the full screens.

Structure | Tgondii IFNg
COc1ccc(-c2nc(C)c(CCNS(=O)(=O)c3ccc(OC)cc3)s2)cc1 | i
O=C(O)CC(NCc1ccco1)C(=O)Nc1ccccc1 (stereo not given) | -11
CCCC(=O)Nc1ccc2c(c1)C(=O)N(C)[C@@H]1CC[C@@H](CC(=O)N3CCCCC3)O[C@@H]1CO2 | -5
Cc1oc(C(C)(C)C)c(CO)c1C(=O)O | -4
Cc1nc2ccccc2nc1SCC(=O)Nc1ccccc1OC(C)C | -88*
CN1C(=O)CCc2cc(NC(=O)c3ccc(F)cc3Cl)ccc21 | 51
CC1(C)SC2C(NC(=O)[C@H](NC(=O)N3CCNC3=O)c3ccccc3)C(=O)N2C1C(=O)O (stereo not given in full) | 18
OCCCc1cn(C2CCN(c3nn4cnnc4c4ccccc34)CC2)nn1 | 0
CCN1c2cc(C)ccc2-n2cccc2C12CCN(C(=O)Nc1ccc(Br)cc1F)CC2 | 83
CC(=O)NCC(=O)N1C[C@H]2CN(c3ccsc3)C(=O)[C@@H]2C1 | 206
CCn1c(=O)c(-c2nc(-c3ccc(C)cc3)no2)c(O)c2ccc(F)cc21 | 11
COc1ccc(-c2nc(NCCN3CCOCC3)c3ccccc3n2)cc1 | -58
Cc1ccc(C(CC(=O)NCc2ccco2)c2ccc(OC(C)C)cc2)cc1 (stereo not given) | -28
O=C(CCC(=O)N1CCCCCC1)NC[C@@H]1CCNC[C@H]1O | 2
CCCN1C[C@@H](C)[C@@H](OC)CN(C)C(=O)c2ccc(NS(=O)(=O)c3cn(C)cn3)cc2OC[C@H]1C | 29

Further records follow.
Structure | Tgondii IFNg
c1coc(-c2cn3ccc4ccccc4c3n2)c1 | 5
COC(=O)c1cccc(-c2cccc(CN3CCOCC3)c2)c1 | -5
CCc1cc(C(C)n2cc(-c3cccc(OC)c3OC)nn2)on1 (stereo not given) | -7
COc1ccc(-c2ccc(C(=O)N3CCCC3)o2)c2cccnc12 | 13
CNC(=O)c1cc(C2CCC(CNC(=O)c3n[nH]c4c3CCCC4)CC2)nc2ccccc12 (stereo not given) | -41
COc1cccc(-n2cc(CNCc3nnc(-c4ccc(C)n4C)o3)cn2)c1 | 15
Cc1c(C(=O)N2CCC(C)CC2)oc2ccc3c(c12)C(=O)CC1(CCCCCC1)O3 | -110*
CN(C)CCNC(=O)c1cc2c(s1)CCN2c1ncccn1 | 186
Cn1nc(C2CCN(C(=O)C3C=CCN3)CC2)n(Cc2ccccc2)c1=O (stereo not given) | 13
O=S(=O)(c1cccc2nsnc12)N1CCC2(CC1)Nc1cc(F)ccc1-n1cccc12 | 26
C=CCn1cc(CNC(CC)c2cnn(C)c2)c(C)n1 (stereo not given) | -3
CC(C)Nc1nc2c(cc1C(=O)NCC1CC1)CCN(c1ncc(F)cn1)CC2 | 2
Cc1nc(CN(C)C(=O)C2CCCN(c3ccccn3)C2)no1 (stereo not given) | 6
CCOCC1CN(CC2CCOC2)Cc2ccnn2C1 (stereo not given) | 8
CC(C)NC(=O)N1CC2(C1)[C@H](c1ccccc1)[C@@H](CO)N2C(=O)C1CCOCC1 | -16

At a glance, part of the list above:
Structure | Tgondii IFNg
CCOCC1CN(CC2CCOC2)Cc2ccnn2C1 (stereo not given) | 8
CC(C)NC(=O)N1CC2(C1)[C@H](c1ccccc1)[C@@H](CO)N2C(=O)C1CCOCC1 | -16

Carrying on:
Structure | Tgondii IFNg
O=C1C[C@H]2CC[C@@H](CN1)N2C(=O)CCc1ccc2c(c1)OCO2 | -1
COc1cccc(CNC(=O)c2cc3c(s2)CCN3C(=O)c2ccc(F)cc2)c1 | -87*
O=C(NCc1ccccc1-n1ccnc1)[C@H]1Cc2ccccc2CN1 | 5
COc1ccc(C(=O)CC(=O)O)c2c1C=CC(C)(C)O2 | 10
c1cnc(N2Cc3nccn3CC(CN3CCCC3)C2)nc1 (stereo not given) | 48
C=CCOc1ccccc1NC(=O)c1cnc(SC)nc1 | 12
Nc1cc(-c2ccc(F)cc2)nn1-c1ccccc1 | 488
COc1ccc2c3c([nH]c2c1)[C@H](CO)N(Cc1ccccc1OC)CC31CN(C(C)=O)C1 | -53
Cc1ccc(C2N=NNC2=S)c(C)c1 (stereo not given) | -2
CC(C)CCN1C2(CCN(C(=O)N3CCOCC3)C2)c2ccccc2S1(=O)=O (stereo not given) | -27
CC1CCN(c2ccc(NS(=O)(=O)c3ccc4[nH]c(=O)ccc4c3)cc2)CC1 | -63
CO[C@H](CN(C)C(=O)c1cc(Cl)cc(Cl)c1)[C@@H](C)CN(C(=O)Nc1ccc(F)cc1)[C@@H](C)CO | 76
Cc1nc(-c2cccc(F)c2)sc1CCNC(=O)C(=O)Nc1ccc2c(c1)OCO2 | -98*
C=CCN1C(=O)CCC12CCCN(Cc1cnn(C)c1)CC2 (stereo not given) | 14
CNc1cc(C(=O)N2CCCC2c2nc(-c3ccccc3)no2)ccn1 (stereo not given) | 19

Following part:
mol	Tgondii IFNg
CO[C@H]1CC[C@@H]2[C@H]1OCCN2C(=O)N(C)C	-22
CN1CC[C@@]2(CN(C(=O)C3CCOCC3)C[C@H]2c2ccccc2)C1=O	24
CN(CC1CCCCO1)S(=O)(=O)NCc1ccccc1 (stereo not given)	-2
O=C(NCc1cnn2ccccc12)c1cccc(Cn2cccn2)c1	-47
Cc1oc(-c2ccc(NC(=O)c3ccc4c(c3)OCO4)cc2)nc1Cn1cccn1	-91*
O=C(c1cccs1)N1CCCC(c2[nH]nc3nccnc23)C1 (stereo not given)	12
O=C1N(Cc2ccccn2)C(=O)C2(CCN(Cc3ccsc3)CC2)N1Cc1ccccc1	23
CCN1C(=O)CCc2cc(NC(=O)CCc3cccc(OC)c3)ccc21	26

Additional structures follow:
mol	Tgondii IFNg
COc1ccccc1/C=C/c1nc2ccccc2n1C	354
O=C(c1cnc2ccccn12)N(CC1CCC1)CC1CCCO1 (stereo not given)	-3
CCS(=O)(=O)N1[C@H](CO)[C@@H](c2ccc(-c3cccc(F)c3)cc2)[C@@H]1C#N	23
O=C(NC1CC1)c1cncc(N2CCCC2)c1	57
C/C=C/c1ccccc1[C@@H]1[C@@H](C#N)N(C(=O)CN2CCOCC2)[C@H]1CO	0
CNC[C@@H]1OCc2cnnn2CCCC(=O)N([C@H](C)CO)C[C@H]1C	i
Cc1ccc(S(=O)(=O)NCCN2CCNC2=O)cc1	-3
O=C(Cc1ccccc1)c1ccc(-c2ccn[nH]2)cc1	48

(next part)
mol	Tgondii IFNg
OCc1ccc(-c2nccn2CCc2ccccc2Cl)o1	5
COC(=O)c1sc(C(F)(F)F)c(-c2ccccc2)c1S(=O)(=O)N1CCCC1	-14
O=C(O)[C@H]1C[C@@H](C(=O)NC2CC2)CN(Cc2cn[nH]c2C2CCCCC2)C1	5
c1cc(CN2CCOCC2)cc(-c2ccc(Cn3ccnc3)cc2)c1	-5
CN1c2ccc(-c3cccc(C#N)c3)cc2[C@H]2[C@H](CCN2C(=O)CN2CCOCC2)[C@@H]1CO	39
COc1ccccc1CNC(=O)C[C@@H]1CC[C@H]2[C@@H](COC[C@@H](O)CN2Cc2ccc3c(c2)OCO3)O1	19
COc1cccc(C2CC(c3ccccc3O)=NC3(CCNCC3)N2)c1O (stereo not given)	317
COc1cc(C(=S)N2CCOCC2)ccc1OC(=O)c1ccccc1	-26

Next part:
mol	Tgondii IFNg
COc1ccc(NC(=O)N2CCC(c3nc(C(=O)N(C)C)c(C)o3)CC2)cc1F	142
CCc1ccccc1S(=O)(=O)N1CCC2(CC1)Nc1cc(OC)ccc1-n1cccc12	0
COc1ccc(C(=O)N2CCC(O)(c3ccc(C)cn3)CC2)c(F)c1F	-32
CN(C)CC1(O)CCN(C(=O)CCCCc2ccccc2)C1 (stereo not given)	3
CCc1cc(N2CCC3(CC2)CNC(=O)O3)nc(N2CCOCC2)n1	2
O=C1CSC2=NC3=C(CCc4ccccc43)C(c3cccs3)N12 (stereo not given)	33
COc1ccc(Cc2nc3c4cnn(-c5ccccc5)c4ncn3n2)cc1OC	-9
COc1cccc(-c2nc(C)c(-c3ccc(SCc4cccc(Cl)c4)nn3)s2)c1	-32

Further entries:
mol	Tgondii IFNg
O=C1CCCN1CCCNc1ccc(Cl)nn1	40
CN1CCc2c(n(CC(O)CN(CCO)CCO)c3ccccc23)C1=O (stereo not given)	-10
CCN(c1ccccc1)S(=O)(=O)c1cc2c3c(c1)CCC(=O)N3CCC2	361
CCN1c2ccccc2C(=O)NC12CCN(C(=O)c1cc(OC)cc(OC)c1)CC2	34
CNC(=O)C(C)N(C)Cc1ccc(C(C)=O)cc1 (stereo not given)	-39
Cc1cc(C)c2c(n1)sc1c(=O)n(C)cnc12	-5
Cc1cccc2c(-c3ccc(Cl)c(C(N)=O)c3)c[nH]c12	321
CCc1nc2ccc(NC(=O)CCN3Cc4ccccc4C3=O)cc2[nH]1	20

(continued)
mol	Tgondii IFNg
COc1ccc(-c2nc(C)c(CCNC(=O)C3CCCCC3)s2)cc1OC	i
CCC(=O)N1[C@H](C#N)[C@H](c2ccccc2-c2ccccc2)[C@H]1CO	8
O=C(Nc1nncs1)Oc1ccccc1	-46
CCN1C(=O)CCc2cc(NC(=O)/C=C/c3ccccc3)ccc21	-83*
CCc1cnc(N2CCN(CCN(C)C)c3ncccc3C2)nc1	1
COc1ccc(-c2nnc(-c3nc(N4CCCC4)c4ccccc4n3)o2)cc1	173
COc1ncccc1C(Cc1ccsc1)NC(=O)Cn1cccnc1=O (stereo not given)	21
O=C(Cc1cccnc1)N1CC(=O)N2[C@@H](CO)[C@@H](c3ccc(C#CC4CCCCC4)cc3)[C@@H]2C1	-57

(more compounds)
mol	Tgondii IFNg
COCC(C)(C)C(=O)N1CCc2[nH]nc(-c3ccc(F)c(F)c3)c2C1	-7
C[C@H]1CN([C@@H](C)CO)C(=O)Cc2cc(NC(=O)CCCCCC(=O)Nc3ccccc3N)ccc2O[C@H]1CN(C)S(=O)(=O)c1cccs1	1
CN(C)C(=O)N1CCc2onc(C(=O)Nc3cccnc3)c2C1	207
CSc1cccc(CN(C)Cc2ccc(O)c(O)c2)c1	-1
CCCc1nnc(C(=O)N2Cc3cnn(CCO)c3C2)o1	-51
CC1(C)CC2(C)OC(=O)c3ccccc3N2C(=S)N1 (stereo not given)	41
Cc1cccc(NC2COC3(CCCN(Cc4nccn4C)C3)C2)c1 (stereo not given)	340
Cc1ccc(NC(=O)Nc2ccc(-c3nc(-c4ccccc4)co3)cc2)cc1C	4

Next part
mol	Tgondii IFNg
C[C@H](NC(=O)[C@@H]1[C@@H](CO)[C@@H]2Cn3c(cccc3=O)[C@@H]2N1CCC(F)(F)F)c1ccccc1	3
CCOc1cc(N2CCOCC2)c(OCC)cc1NC(=O)Cc1ccccc1	62
Cc1c(C(N)=O)cc([N+](=O)[O-])cc1[N+](=O)[O-]	-44&-18
COc1ccc(NC(=O)N2CCCCN3[C@H](CO)[C@H](c4ccc(-c5ccccc5F)cc4)[C@H]3C2)cc1	-50
C(#CCN1CCOCC1)COC(c1ccccc1)c1ccccc1	-3
CCOc1ccc(-c2cccc3cnccc23)cc1CNC	-24
CN(CCCc1cnn(C)c1)C(=O)c1cccc(CC2CCNCC2)c1	7
Cc1ccc(S(=O)(=O)N(C)c2c(C)ccc(S(=O)(=O)N3CCCC3)c2C)cc1	-36

(continued)
mol	Tgondii IFNg
Cc1cnc(SCC2CCCO2)nc1C1CCCN(C(=O)Cc2ccc3c(c2)OCO3)C1 (stereo not given)	-2
CN1C(=O)c2cc(NC(=O)c3cccc(F)c3)ccc2OC[C@@H]2O[C@@H](CC(=O)NCC3CCCCC3)CC[C@H]21	-3&1
O=C(CC1(c2ccc(Cl)cc2)C(=O)c2ccccc2C1=O)N1CCCCC1	1
Cc1cc(C)n(C2CN(S(=O)(=O)NCc3ccccc3)C2)n1	3
CN(C)C(=O)CN1CC[C@@H](OCC2CC2)[C@H]1Cc1ccncc1	-1
Cc1ccccc1-c1cnc2c(c1)C(=O)N([C@H](C)CO)C[C@H](C)[C@@H](CN(C)Cc1ccccc1F)O2	-52
C[C@@H]1COCc2cnnn2CC[C@H](Cc2ccccc2)C(=O)N1	-11
Cn1c(=O)c(C(=O)N2C[C@@H]3[C@@H]4CC[C@@H](C4)[C@@H]3C2)nc2ccccc21	21

Quoted at random: 7 entries already listed.
mol	Tgondii IFNg
CSc1cccc(CN(C)Cc2ccc(O)c(O)c2)c1	-1
CNC[C@@H]1OCc2cnnn2CCCC(=O)N([C@H](C)CO)C[C@H]1C	i
COc1ccc(NC(=O)N2CCC(c3nc(C(=O)N(C)C)c(C)o3)CC2)cc1F	142
Cn1nc(C2CCN(C(=O)C3C=CCN3)CC2)n(Cc2ccccc2)c1=O (stereo not given)	13
CCOc1ccc(-c2cccc3cnccc23)cc1CNC	-24
CC(C)NC(=O)N1CC2(C1)[C@H](c1ccccc1)[C@@H](CO)N2C(=O)C1CCOCC1	-16
CCCN1C[C@@H](C)[C@@H](OC)CN(C)C(=O)c2ccc(NS(=O)(=O)c3cn(C)cn3)cc2OC[C@H]1C	29

(list continues)
mol	Tgondii IFNg
Fc1ccccc1CN(Cc1cccnc1)Cc1ccc(N2CCCC2)c(F)c1	-6
CN1CCN(C2=Cc3ccccc3Oc3ccc(Cl)cc32)CC1	15
CCC(NC(=O)Cc1c(C)nc(C)[nH]c1=O)c1cccs1 (stereo not given)	1
CC[C@@H]1/C=C(\C)C[C@H](C)C[C@H](OC)[C@H]2O[C@@](O)(C(=O)C(=O)N3CCCC[C@H]3C(=O)O[C@H](/C(C)=C/[C@@H]3CC[C@H](Cl)[C@H](OC)C3)[C@H](C)[C@@H](O)CC1=O)[C@H](C)C[C@@H]2OC	-68
CN(C)CC(=O)N1[C@H](C#N)[C@@H](c2ccccc2-c2ccccc2F)[C@@H]1CO	-29
Cc1cc(CNC(=O)c2cccnn2)c2[nH]c(C)c(C)c2c1	13
COc1cccc(S(=O)(=O)Nc2ccc3c(c2)C(=O)N(C)C[C@@H](OC)[C@@H](C)CN(Cc2ccccc2F)[C@H](C)CO3)c1	-53
COc1ccc(N(Cc2nc(-c3cccc(C)c3)oc2C)S(=O)(=O)c2ccc(OC)cc2)cc1	16

(next part)
mol	Tgondii IFNg
Cc1oc(-c2ccccc2)nc1CC(=O)O	-25
O=C(C1CC1)N1CCC2(COCc3cnc(N4CCOCC4)nc32)C1 (stereo not given)	0
COC(=O)c1cc(N2C[C@H]3CC=C(C)C[C@H]3C2)ncn1	-2
N#C[C@H]1[C@@H](c2ccccc2-c2cccc(F)c2)[C@H](CO)N1C(=O)C1CC1	2
